High-throughput results as filed in PubChem BioAssay.
BJeLR viability = MLPCN primary cell-based screen for lethality selective to Ras in HRASV12 cells | BJeLR (HRASV12) viability, CellTiter-Glo ATP luminescence, 48 h; reference of the scale not given here | inhibition, % (test concentration not listed) | hit rate 0.17% among 300,000;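 active = replicate mean above 50%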;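 also: 50 nL library stock added to about 25 µL; numbers are from one replicate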
PrP 5UTR inh = inhibition of PrP 5' UTR reporter expression; cell-based PrP 5' UTR mRNA reporter, plate reader; inhibition, % (concentration not given with the values); hit rate 0.35% among 340,000;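 active = every replicate at 50% or more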;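 also: 0 = median of the neutral control wells; tested in H4 reporter cells; numbers are from one replicate; inactives centre near -14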
Autofluor counter = counter-screen for toxin protease inhibitors: compound fluorescence | AID 624483 | hit rate 3.1% among 360,000 | fluorescence intensity (no concentration beside the values) | compound autofluorescence counterscreen, microsphere flow cytometry; stronger effect = higher value;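 active = at least 3 SD above the mean of all compounds, about 16000 in these data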;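 also: 100 nL of 1 mM stock went into each well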
Mtb hypoxia inh = PubChem AID 1159583 | M. tuberculosis hypoxia-regulated fluorescent reporter, fluorescence | fluorescence inhibition, % (concentration not given with the values) | hit rate 0.1% among 300,000;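 active = 35 to 45% if threefold the growth effect, above 45% if 1.5-fold the growth effect; inactive = the rest, general growth blockers included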;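 also: wells of about 50 µL received 100 nL stock; 0% = vehicle wells and 100% = reference inhibitor wells; whole bacteria with a GFP reporter of the hypoxia response; strong numbers were not always called active; many hits fall short of the cut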
RN4220 kill = growth inhibition of S. aureus RN4220, primary screen, OD600; 16 h; inhibition, % (no concentration beside the values); hit rate 0.33% among 330,000; AID 1259311, 2017;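 active = z-score of -3 or lower and OD600 up to 0.18 on both plates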;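 also: plate controls were untreated cells for no effect and reference antibiotic for full effect; stock transfer was 100 nL into about 80 µL; one replicate is shown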
Sa ugtP lethal = growth inhibition of ugtP-null S. aureus, primary screen, RN4220 ugtP deletion, OD600; hit rate 0.54% among 330,000; 16 h; some inactives read as strong as hits; growth inhibition, % (test concentration not listed);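 active = z-score under -3 and OD600 up to 0.15 on both plates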;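 also: plate controls were untreated wells for no effect and antibiotic for full effect; wells of about 80 µL received 100 nL stock; the first replicate is given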
Mtb hypoxia inh growth = recorded beside Mtb hypoxia inh, whose call it bears; growth inhibition, %; measured here: M. tuberculosis growth (absorbance);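 0% = vehicle and 100% = reference antibiotic; read after six days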
The depositor's hits bear a star; / = no result given; & = joins results of further samples.

SMILES	BJeLR viability	PrP 5UTR inh	Autofluor counter	Mtb hypoxia inh	Mtb hypoxia inh growth	RN4220 kill	Sa ugtP lethal
CC(=O)Nc1ccc(NCC(O)COc2ccccc2)cc1 (stereo not drawn)	-7	-13	2114	/	/	-2.6	1
CCOC(=O)N1CCC(N2C(=O)c3ccc(C(=O)Nc4cccc(OC)c4)cc3C2=O)CC1	2	-5	5635	11	-4	-8.1	7
COc1cc(C2C(C#N)=C(N)N(c3ccc(F)cc3)C3=C2S(=O)(=O)CC3)ccc1O (stereo not drawn)	-5	-16	5183	/	/	/	/
CN(C)c1ccc(-n2cccc2)cc1	-7	-22	5737	10	2	8.7	3
CC(C(=O)Nc1ccc(C(=O)O)cc1)N1C(=O)c2ccccc2C1=O (stereo not drawn)	7	-16	20892*	3	3	2.2	1
CC1(C)CC(=O)c2c(oc3ccc(NS(=O)(=O)c4ccc(C(=O)O)cc4)cc23)C1	0	-12	2017	11	0	3.3	-3
O=C(O)c1cccc(N2C(=O)C3CC=CCC3C2=O)c1 (stereo not drawn)	-8	-15	6502	0	2	2.3	6
CC(=O)Nc1ccc(S(=O)(=O)N2CCN(c3cc(C(F)(F)F)ccn3)CC2)cc1	22	-25	6388	5	-5	2.9	4
C/C=C/c1ccc(OCC(=O)N2CCc3cc(OC)c(OC)cc3C2)c(OC)c1	-11	-23	3681	-10	2	-1.8	-8
O=C(CSc1ncnc2sccc12)NCc1ccc2c(c1)OCO2	/	/	/	13	2	1.9	-2
CCOc1c2ccc(C(=O)NCc3ccccc3OC)cc2nn1CC	9	-9	3297	2	8	5.5	-4
COc1ccc(OCCCC(=O)NCCc2ccc(OC)c(OC)c2)cc1	-3	-11	2559	-5	1	2.9	0
CC1CC=CC2C1C(=O)N(Cc1ccccc1)C2c1cccc([N+](=O)[O-])c1 (stereo not drawn)	/	/	/	3	0	9.6	0
O=C(NNC(=S)NCc1ccccc1)c1cccnc1	1	-22	5709	12	-5	3.0	2
CN(C(=O)C=Cc1ccccc1)c1ccccc1	/	-40	3657	22	14	4.1	-2
CC[C@]1(C(=O)OC)[C@H]2C(=O)N(Cc3ccccc3)C(=O)[C@H]2[C@H]2CN=C(SCc3ccc(Cl)cc3)N21	/	-9	4055	-4	0	0.9	-23
CCOC(=O)c1ccc(S(=O)(=O)NNC(=O)Cc2csc(C)n2)cc1	/	-15	/	5	3	3.8	6
COCCC(=O)N1CCC(Oc2ccc(C(=O)NCCn3cccn3)cc2)CC1	1	-21	5152	-4	-16	-2.7	2
O=C(CCn1c(=S)[nH]c2ccccc2c1=O)NCCCN1CCOCC1	3	13	16076	3	8	-2.2	-4
CC1CCN(c2ccc(-c3cccs3)nn2)CC1	18	80*	3677	4	7	2.4	11
CN(c1ccccc1)S(=O)(=O)c1cccc(C(=O)OCC(=O)NCc2ccccc2)c1	/	-17	3738	6	0	4.5	-6
CCOc1ccc(CNC(=S)N/N=C\c2ccc([N+](=O)[O-])cc2)cc1	-1	29	2378	/	/	/	/
CCC(CC)c1nnc(NC(=O)CC(C)c2ccccc2)s1 (stereo not drawn)	48	-18	3880	11	3	7.5	3
Cc1cc(C(=O)CSc2nnc(-c3cccnc3)n2-c2ccccc2F)c(C)n1C	-2	-30	8818	0	-4	0.7	-7

5 of these compounds, reformatted:
| mol | BJeLR viability | PrP 5UTR inh | Autofluor counter | Mtb hypoxia inh | Mtb hypoxia inh growth | RN4220 kill | Sa ugtP lethal |
| --- | --- | --- | --- | --- | --- | --- | --- |
| CCOC(=O)c1ccc(S(=O)(=O)NNC(=O)Cc2csc(C)n2)cc1 | / | -15 | / | 5 | 3 | 3.8 | 6 |
| COCCC(=O)N1CCC(Oc2ccc(C(=O)NCCn3cccn3)cc2)CC1 | 1 | -21 | 5152 | -4 | -16 | -2.7 | 2 |
| O=C(CCn1c(=S)[nH]c2ccccc2c1=O)NCCCN1CCOCC1 | 3 | 13 | 16076 | 3 | 8 | -2.2 | -4 |
| CC1CCN(c2ccc(-c3cccs3)nn2)CC1 | 18 | 80* | 3677 | 4 | 7 | 2.4 | 11 |
| CN(c1ccccc1)S(=O)(=O)c1cccc(C(=O)OCC(=O)NCc2ccccc2)c1 | / | -17 | 3738 | 6 | 0 | 4.5 | -6 |

(cont.)
SMILES	BJeLR viability	PrP 5UTR inh	Autofluor counter	Mtb hypoxia inh	Mtb hypoxia inh growth	RN4220 kill	Sa ugtP lethal
CCCN(CC(=O)Nc1ccccc1C)C(=O)Cc1coc2cc(C)ccc12	-6	-9	4465	12	5	0.7	-3
N=C1SC(CC(=O)Nc2ccccc2[N+](=O)[O-])C(=O)N1c1ccccc1 (stereo not drawn)	-2	-10	3926	-8	4	3.6	-1
Oc1ccccc1-c1nc(N2CCCC2)c2ccccc2n1	7	-24	2996	6	14	0.6	-8
CCCS(=O)(=O)N1CCC(C(=O)NCCN2CCCC2)CC1	-7	-2	2365	-2	-4	16	16
Cc1ccc(Cl)cc1N1CCN(C(=O)C(=O)N2CCCCC2)CC1	-6	-20	2645	4	3	8.7	12
COc1ccc(CNC(=O)C(OC(=O)c2ccco2)c2ccccc2)cc1 (stereo not drawn)	-5	-14	3524	-5	-5	-2.7	18
C=CCNC(=S)N1CCC(C(=O)c2ccc(F)cc2)CC1	-5	-8	3910	10	7	6.6	5
C=CCn1c(SCC(=O)NCC(c2ccccc2)N(C)C)nnc1C1CCCCC1 (stereo not drawn)	/	-18	/	7	3	3.2	4
CC(=O)Nc1ccc(NC(=O)C2CCCCC2C(=O)O)cc1 (stereo not drawn)	14	-7	9282	-1&0	5&5	-0.3&-2.1	-3&4
COc1ccccc1NS(=O)(=O)c1ccc(-c2cc(C)no2)s1	4	-16	4517	5	-8	10	1
Cc1ccc(NC(=O)C2(NC(=O)c3cccc(N4C(=O)CSC4c4ccccc4)c3)CCCCC2)cc1 (stereo not drawn)	0	-14	3729	6	-5	39	12
CC(C)c1ccc(N(CC(=O)Nc2ccc(S(=O)(=O)N3CCOCC3)cc2)S(C)(=O)=O)cc1	-3	-10	4344	1	13	-6.5	5
COc1ccc(-c2oc3ncnc(NCCCN(C)C)c3c2-c2ccc(OC)cc2)cc1	11	/	4026	13	17	-1.6	2
O=c1ccc(Cl)n[nH]1	-18	-8	3953	/	/	/	/
Cc1ccc2c(c1)CC1(CN2C)C(=O)NC(=O)N(c2cccc(C)c2C)C1=O (stereo not drawn)	-15	-28	9775	8	9	4.6	2
COc1cc(-c2nnn(CC#N)n2)ccc1OCc1ccccc1	-4	-22	6823	7	0	9.9	26
Cc1ccc(C(=O)N/N=C2/NC(=O)CC(C(=O)Nc3ccccc3)S2)cc1 (stereo not drawn)	-29	-10	1924	-2	4	-6.6	-4
COCC1CCCCN1C(=O)c1cc(COc2ccc3ncccc3c2)on1 (stereo not drawn)	8	-8	4921	7	9	-0.4	7
Cc1ccsc1C(=O)N1CCN(C(=O)c2ccco2)CC1	/	-17	2835	-6	-7	-1.5	0
CC(=NNC(=O)CSCc1ccc(Cl)cc1)c1ccc(NC(=O)c2ccccc2)cc1	/	/	/	6	8	-1.0	-4
O=C(Nc1nc2nccc(-c3ccccc3)n2n1)C(Cl)(Cl)Cl	4	-34	2724	-4	16	0.7	-5
Cc1cc(=O)oc2cc(OCC(=O)Nc3ccc(CN4CCOCC4)cc3)c(Cl)cc12	4	-31	4864	3	1	-0.6	8
c1ccc(-c2ccncn2)cc1	/	-22	3391	5	10	3.9	7
Cc1ccc(CNS(=O)(=O)c2cccc3nsnc23)cc1	-4	-37	4874	11	3	2.1	0
O=C(CCC(=O)c1cccs1)OCc1nnc(-c2ccccc2)o1	-17	-12	2722	/	/	2.1	2
Clc1cc(I)cc(Cl)c1NC1=NCCN1	-7	-3	5658	3	-3	3.6	3
Fc1ccccc1OCCCCCCN1CCCC1	14	/	10021	5	2	4.6	0
C/C(CCc1ccc2c(c1)OCO2)=N\NC(=O)c1ccccc1Cl	-1	-24	8658	/	/	/	/
CCn1c(CSc2nnc(C)n2-c2ccccc2)nc2cc(S(=O)(=O)N(C)C)ccc21	-2	-7	3738	-4	-1	-1.6	2
O=C(Nc1cccc(-c2csc(Nc3ccc(Cl)cc3)n2)c1)c1cccc(C(F)(F)F)c1	6	-19	2959	-8	0	89*	76
Cc1ccc(NC(=O)CN(C)CC(=O)N(C)Cc2ccccc2)cc1	/	/	5118	6	11	6.6	4
COc1cccc(C2Nc3cccc4cccc(c34)N2)c1	6	-32	4490	18	11	-0.3	-5
COc1ccccc1NC(=S)N(Cc1ccccc1)Cc1cccs1	-14	67*	4603	-9	-3	-1.2	1
NC(=O)[C@@H]1CCCCNc2c(F)cc([N+](=O)[O-])cc2C(=O)N[C@@H](CC(=O)O)C(=O)N[C@@H](CCC(=O)O)C(=O)N1	-9	-5	3833	/	/	/	/
COc1ccc(/C=C/C(=O)OCC(=O)Nc2cc(C(F)(F)F)ccc2Cl)cc1	8	-32	2728	-8	0	0.7	-2
Cn1ccnc1SCC(=O)Nc1ccc([N+](=O)[O-])cn1	-15	-3	5213	2	8	-1.3	-4
CCN(CC)S(=O)(=O)c1cc(C(=O)N2CCc3ccccc32)ccc1Cl	0	-10	4547	5	-2	4.4	19
CCCc1c(C(=O)NN=C(C)CCc2ccccc2)nnn1-c1nonc1N	/	/	/	-8	-6	3.4	0
COc1ccc(/C=C/C(=O)OCC(=O)Nc2cc(S(=O)(=O)N(C)C)ccc2Cl)cc1	-2	-18	4740	12	5	9.2	3
CCO/N=C/C(=O)Nc1ccc(F)cc1F	-6	-25	1898	/	/	/	/
C=CCCCCCCCC(=O)OC	-2	0	4232	/	/	5.7	-2
Cc1cccc(OCC(=O)Nc2cc(NC(=O)COc3cccc(C)c3)cc(C(=O)O)c2)c1	2	-4	3428	8	0	-4.5	0
COc1ccccc1C(=O)NCC(=O)N/N=C/c1ccncc1	2	-9	2545	/	/	/	/
CC(C)(C)OC(=O)N1CCC(NC(=O)c2nc[nH]c2C(=O)NC2CCN(C(=O)OC(C)(C)C)CC2)CC1	/	-13	2880	4	1	8.7	8
Cc1ccc2nc(NS(=O)(=O)c3cn(C)nc3C)sc2c1	-5	-4	4508	5	3	3.4	0
COc1cccc(OC)c1CN1CCCC(C(=O)c2ccccc2SC)C1 (stereo not drawn)	14	-21	4698	5	-3	1.2	11
CC(C)CC(C(=O)O)N1C(=O)C2C3c4ccccc4C(c4ccccc43)[C@@H]2C1=O (stereo partly drawn)	-3	/	3999	-4	-5	6.8	-1
COCCn1c(SCC(=O)NC2CCCC2)nnc1-c1ccncc1	5	-10	3093	15	3	-0.2	5
CCOc1cc(/C=C2/SC(=Nc3ccccc3)N(Cc3cccnc3)C2=O)ccc1OCC#N	7	4	2931	4	7	-7.0	-6
COCc1cc(=O)[nH]c(/N=C(\N)Nc2ccc(C)cc2)n1	3	-33	21003*	/	/	/	/
COc1ccccc1Oc1c(C)oc2c(CN(C)C)c(O)ccc2c1=O	2	-9	7517	1	7	1.6	5
NNC(=O)c1n[nH]c2c1CC(C1CCCCC1)CC2 (stereo not drawn)	/	-19	2774	14	12	2.6	4
Cc1ccc(N(C(C)C(=O)Nc2ccc(S(=O)(=O)N3CCOCC3)cc2)S(C)(=O)=O)cc1C (stereo not drawn)	10	-10	3667	/	/	-1.2	23
O=C(O)c1ccc(-c2nnn(Cc3ccccc3F)n2)cc1	-8	-13	4466	0	-10	-0.6	19
CC(=O)Nc1ccc(NC(=O)COC(=O)c2ccc(Cl)nc2)cc1	/	-13	6945	10	8	3.7	11
O=c1[nH]c(SCc2cccc([N+](=O)[O-])c2)nc2[nH]ncc12	1	-5	2606	6	8	4.4	3
O=c1ncn(-c2ccccc2C(F)(F)F)c2ncccc12	3	-22	3884	1	10	4.5	10
COc1ccc(C(=O)N/N=C/c2ccc(OC)c(COc3ccc(F)cc3F)c2)cc1	3	-18	4318	/	/	/	/
COc1ccnc(N=CNOCc2ccc(Cl)cc2)c1C#N	-4	-26	4118	18	2	3.7	2
CC(COC(=O)c1ccccc1)(COC(=O)c1ccccc1)/[N+]([O-])=C/c1ccccc1	-2	5	2282	4	1	10.0	5
COc1ccc(NC(=O)c2oc3ccccc3c2NC(=O)C(C)(C)C)cc1	4	-31	8054	2	1	-1.2	-3
COC(=O)C1=CN(Cc2ccc(F)cc2)C=C(C(=O)OC)C1c1ccc(O)c(OC)c1	14	-36	3862	-10	-10	2.3	-4
Cc1ccccc1-n1nc(C(=O)O)cc1-c1ccccc1	-11	-23	10568	1	5	1.7	-2

No enrichment for hits. About 3.9% of those tested had a hit in this group.
